Bioassay records as filed in PubChem BioAssay.
Vaccinia mCherry: vaccinia inhibition (mCherry reporter). Vaccinia virus mCherry reporter infection, fluorescence; about a quarter of the inactives have no number. Potency, µM (highest dose often 36.5 µM), inactives show at the top dose activity change, negative = inhibition, hits mostly inhibitors. 0.63% of 310,000 active; active = well fitted inhibition curve with a large enough effect; inconclusive = small, poorly fitted or top-dose-only effect; inactive = no such curve, though single readings can be large or run the other way; tested in A549 cells; note: nearly all actives have a fitted effect of over 35% in size; inactives centre near -10
Vaccinia Venus: vaccinia inhibition (Venus reporter) | Vaccinia virus Venus reporter expression, fluorescence | Potency, µM (highest dose often 36.5 µM), for inactives: at the top dose activity change, negative = inhibition, hits mostly inhibitors | 0.46% of 330,000 active; active means well fitted inhibition curve with a large enough effect; inconclusive means small, poorly fitted or top-dose-only effect; inactive means no such curve, though single readings can be large or run the other way; tested in A549 cells; note: nearly all actives have a fitted effect of over 30% in size; inactives centre near -10
* marks the source's active call; other numbers are inactive results; i = inactive; ? = inconclusive; · = no result given; & = joins results of further samples; [ ] = dose if it differs, or a comment. % is set by controls: 0 for no effect and ±100 for the full control effect; potency is the fitted concentration of half-maximal effect.

SMILES	Vaccinia mCherry	Vaccinia Venus
CC1(C(=O)NS(=O)(=O)c2ccc(Cl)s2)CCN1C(=O)C1(c2ccc(Cl)cc2)CC1 (configuration not stated)	41%[activator]	9%
C=CCc1ccccc1OCC(O)CNC (configuration not stated)	-11%	6%
CCOC(=O)C1=C(C)NC(=O)NC1c1c(OCC(=O)N2CCCCC2)ccc2ccccc12 (configuration not stated)	·	-18%
CCOC(=O)N1CCN(C(=O)CCC(=O)N2CCOc3ccc(C)cc32)CC1	·	?
COCCN1C=C(C(=O)OC)C(c2cc3c(cc2Br)OCO3)C(C(=O)OC)=C1	i	-10%
N#CCCN1CCC(NC(=O)OCc2ccccc2)CCC1=O (configuration not stated)	i	-15%&-12%
CC(C)NC(=O)[C@@H]1C[C@@]1(C)[C@@H](NC(=O)OCc1ccccc1)c1ccccc1	-24%	-5%
Cc1ccc(S(=O)(=O)N(C)Cc2ccc(-c3nnco3)cc2)cc1	·	-15%
COc1ccc(-c2cc3cc(OC)c(OC)cc3cn2)cc1	-4%	?
CCCCCC(=O)N1C[C@@H](n2cc(-c3ccc(F)cc3)nn2)[C@H](O)C[C@@H]1c1ccccc1	-11%	-21%
COc1ccc(/C=N/NC(=O)CNC(=O)/C=C/c2ccco2)cc1OC	-21%	-14%
CC(=O)N(CCCN(C)C)Cc1ccccn1	-1%	-23%
Cc1ccc(NC(=S)N=Nc2c(O)n(C)c3ccc(S(=O)(=O)N4CCOCC4)cc23)cc1	-18%	-22%
COc1ccc(-c2c(C(=O)O)c(-c3ccccc3)cn2C)cc1	i	-10%
Cc1ccc2c(c1)N(C(=O)c1ccc(F)cc1)C(C)(C)CC2(C)c1ccccc1 (configuration not stated)	-10%	-5%
COCCNC(=O)C1(C)CCCN(C(=O)c2cccc(OC(F)(F)F)c2)C1 (configuration not stated)	32%[activator]	-7%
CC[C@@]12C(=O)N(c3cccc(C)c3)C(=O)N1[C@H](c1ccc(Br)cc1)[C@@H]1C(=O)N(C(C)(C)C)C(=O)[C@@H]12	?	?
Cn1c(=O)c2c(nc(SCC(=O)NCC3CCCO3)n2Cc2ccc(F)cc2)n(C)c1=O (configuration not stated)	5%	-3%
CCc1ccc(NC(=O)CSc2nnc(COc3ccc4c(c3)CCCC4)o2)cc1	·	-8%
COc1cc(/C=C/C(=O)NCC(=O)N2CCC(N(C)CCN3CCOCC3)CC2)ccc1OC(C)C	i	-14%
Cc1ccc(C)c(NC(=O)CN(C)C(=O)c2cc3ccccc3o2)c1	-2%	3%
CC(CNC(=O)c1ccc(Br)o1)NC(=O)c1ccc(Br)o1 (configuration not stated)	-9%	-12%
Cc1ccc(C(=O)CNc2nc3c(c(=O)[nH]c(=O)n3C)n2Cc2ccccc2)cc1	·	-2%
C=CCN1C=C(C(=O)c2ccccc2)C(=O)CC1	-23%	?
Cc1nc2ccccc2cc1C(=O)N/N=C/c1ccccc1[N+](=O)[O-]	-11%	-3%

Next section; it opens with the 7 that closed the last part.
SMILES	Vaccinia mCherry	Vaccinia Venus
CCc1ccc(NC(=O)CSc2nnc(COc3ccc4c(c3)CCCC4)o2)cc1	·	-8%
COc1cc(/C=C/C(=O)NCC(=O)N2CCC(N(C)CCN3CCOCC3)CC2)ccc1OC(C)C	i	-14%
Cc1ccc(C)c(NC(=O)CN(C)C(=O)c2cc3ccccc3o2)c1	-2%	3%
CC(CNC(=O)c1ccc(Br)o1)NC(=O)c1ccc(Br)o1 (configuration not stated)	-9%	-12%
Cc1ccc(C(=O)CNc2nc3c(c(=O)[nH]c(=O)n3C)n2Cc2ccccc2)cc1	·	-2%
C=CCN1C=C(C(=O)c2ccccc2)C(=O)CC1	-23%	?
Cc1nc2ccccc2cc1C(=O)N/N=C/c1ccccc1[N+](=O)[O-]	-11%	-3%
O=C(Nc1ccccc1C(=O)NC(Cc1ccccc1)C(=O)O)c1ccccc1 (configuration not stated)	-1%	-4%
COc1ccc(/C=C\c2onc(C)c2S(=O)(=O)N2CCC(C(=O)NCc3ccco3)CC2)cc1	i	13%
O=C(CSc1nnc(NC(=O)c2cccc(F)c2)s1)NC1CCCC1	-2%	-7%
Cc1c(CC(=O)O)c(=O)oc2c(C)c3occ(-c4ccc(Br)cc4)c3cc12	?	9%
CCOC(=O)C1=CC[C@@H](c2ccccc2)N(S(=O)(=O)c2ccc(C)cc2)[C@H]1C#N	i	-20%
Cn1nc(-c2ccc(N3CCCCC3)c(NC(=O)c3ccc(Cl)cc3)c2)c2ccccc2c1=O	6%	3%
Cc1ccc(Oc2nc(C(F)(F)F)nc3ccccc23)cc1	-11%	-13%
CC(=O)OC[C@@H]1CN(Cc2ccccc2)C[C@H](n2ccc3c(N)ncnc32)O1	3%	-1%
COc1cc(N=Nc2ccc(C)cc2S(N)(=O)=O)c(C)cc1N	?	-20%
COCC1CCN(C(=O)CCc2nnc(C3(c4ccc(Cl)cc4)CCC3)o2)C1 (configuration not stated)	-8%	-5%
CCCNC(=O)CN(Cc1ccccc1F)S(=O)(=O)c1ccc(C)cc1	i	-9%
CC(C)(C)N1CC(OC(N)=O)C1	i	-4%
CCc1ccccc1NC(=O)C1CCN(S(=O)(=O)c2ccccc2)CC1	-11%	7%
Cc1ccc(-c2csc(NC(=O)C3=NN(c4ccccc4)C(=O)CC3)n2)cc1	-6%	-7%
CCOC(=O)c1c(NC(=O)C[n+]2ccccc2)sc2c1CCCC2	-19%	-8%
O=C(c1cc2nc(-c3ccccc3)cc(-c3ccccc3)n2n1)N1CCN(C(=O)c2ccco2)CC1	·	?
CCOC(=O)c1c(NC(=O)COC(=O)c2nccnc2N)sc(C(=O)N(C)C)c1C	-9%	-14%
O=C(CCn1c(=O)oc2ccccc21)N(Cc1ccccc1)c1ccccn1	-13%	-1%
CCOc1cccc(-c2cc(NCCc3ccccn3)n3nccc3n2)c1	-9%	-1%
O=C(NCc1ccccc1)C(CCc1ccccc1)n1c(=O)c(-c2ccccc2)nc2ccccc21 (configuration not stated)	-43%	-20%
Cn1c(CC(=O)NC(C)(C)CO)c(Sc2ccccc2)c2ccccc21	-10%	-24%
CC12CCC(=O)N1C(C(=O)NCc1ccc(Cl)cc1Cl)CS2 (configuration not stated)	-12%	0%
COc1ccc(N2CC(C(=O)N3CCCC(C)C3)CC2=O)cc1 (configuration not stated)	-7%	4%
CCn1cc(C(=O)N[C@@H](CCSC)C(=O)NCCO)c(=O)c2cc3c(cc21)OCO3	i	-12%
CC(=O)N1CCN(C(=S)Nc2cc(S(=O)(=O)N3CCOCC3)ccc2Cl)CC1	i	-8%

The results go on:
SMILES	Vaccinia mCherry	Vaccinia Venus
CN(C)c1ccc(-c2nc3cnccn3c2Nc2cccc(C(F)(F)F)c2)cc1	-7%	-9%
Cc1cccc(N2CCN(S(=O)(=O)c3cc(C(=O)Nc4ccc(Oc5ccccc5)cc4)ccc3F)CC2C)c1 (configuration not stated)	-20%	-29%
COc1cc(C(F)(F)F)c(C(=O)N(C)Cc2ccc(Cl)c(Cl)c2)cn1	i	-14%
COc1ccc(C(=O)NC2CCN(S(=O)(=O)c3ccccc3)CC2)cc1	i	-3%
CC(=O)N1CCc2cc(S(=O)(=O)Nc3ccccc3N3CCN(C)CC3)ccc21	-11%	-12%
CCCc1ccc(C(O)c2ncc(-c3cccc(OC)c3)[nH]2)cc1 (configuration not stated)	3%	-7%
COC(=O)c1ccc(CNC(=O)Cn2cnc3c(SC)nc(N)nc32)cc1	i	-22%
CCOc1cc(/C=N/NC(=O)c2nn(C)cc2Br)ccc1OCc1ccccc1Cl	?	?
CN1Cc2c(N3CCOCC3)nc3sc(C(=O)c4ccccc4)c(N)c3c2CC1(C)C	-8%[7.34 µM]	-11%[7.34 µM]
O=C(Nc1nc2ccccc2s1)c1ccc(Cl)s1	4%	-8%
Cc1sc2nc(CSCC(=O)N3CC(C)OC(C)C3)[nH]c(=O)c2c1C (configuration not stated)	-17%	0%
C[C@@H]1CN([C@@H](C)CO)C(=O)CCCn2cc(nn2)CO[C@H]1CN(C)S(=O)(=O)c1cccc(F)c1	i	2%
Cc1ccc(CNC(=O)C2CCCN2S(=O)(=O)c2ccc(F)cc2)cc1 (configuration not stated)	-19%	-4%
COc1ccccc1CNC(=O)c1cnc2sc(N3CCCCCC3)nn2c1=O	i	-21%
O=C(Cn1cccc1C(=O)c1ccccc1)NCc1ccccn1	-12%	1%
O=C(CCn1c(=S)oc2ccccc21)Nc1ccc2c(c1)OCCO2	·	-4%
CC(CSc1nc2ccccc2s1)Cn1c(N2CCCC2)nc2c1c(=O)[nH]c(=O)n2C (configuration not stated)	-7%	-23%
CCCCC(CC)CN1CN(CC(CC)CCCC)CC(C)(N)C1 (configuration not stated)	?	?
COc1cccc(CNC(=O)CN2C(=O)CC(c3ccccc3)=Nc3ccccc32)c1	-9%	-4%
COc1cc2c(cc1OC)[C@H](C)N(C(=O)CSc1nc(O)c(C(C)C)c(=O)[nH]1)CC2	2%	-1%
CCOc1ccc(-c2nc3c(c(CC)nn3-c3ccccc3)c3cc(OC)c(OC)cc23)cc1	-3%	12%
CC1(C)C2CCC1(C)C(OC(=O)CSc1nc(N)cc(=O)[nH]1)C2 (configuration not stated)	-6%	-7%
CC1Cc2ccccc2N1C(=O)CSc1nnnn1C1CCCC1 (configuration not stated)	-13%	3%
Cc1ccc(NC(=O)CNC(=O)c2ccc(C)s2)nc1	-5%	-18%
N/C(=N\OC(=O)c1ccc(Cl)c(Cl)c1)c1cccnc1	-6%	-7%

Whole records as entered above. Order of screens: Vaccinia mCherry | Vaccinia Venus
COc1ccc(C(=O)NC2CCN(S(=O)(=O)c3ccccc3)CC2)cc1 reads i | -3%
CCCCC(CC)CN1CN(CC(CC)CCCC)CC(C)(N)C1 (configuration not stated) reads ? | ?
CN1Cc2c(N3CCOCC3)nc3sc(C(=O)c4ccccc4)c(N)c3c2CC1(C)C reads -8%[7.34 µM] | -11%[7.34 µM]
CC(CSc1nc2ccccc2s1)Cn1c(N2CCCC2)nc2c1c(=O)[nH]c(=O)n2C (configuration not stated) reads -7% | -23%
CC(=O)N1CCc2cc(S(=O)(=O)Nc3ccccc3N3CCN(C)CC3)ccc21 reads -11% | -12%

Entries listed so far that have a CF3 group:
SMILES	Vaccinia mCherry	Vaccinia Venus
COCCNC(=O)C1(C)CCCN(C(=O)c2cccc(OC(F)(F)F)c2)C1 (configuration not stated)	32%[activator]	-7%
Cc1ccc(Oc2nc(C(F)(F)F)nc3ccccc23)cc1	-11%	-13%
CN(C)c1ccc(-c2nc3cnccn3c2Nc2cccc(C(F)(F)F)c2)cc1	-7%	-9%
COc1cc(C(F)(F)F)c(C(=O)N(C)Cc2ccc(Cl)c(Cl)c2)cn1	i	-14%

(list continues)
SMILES	Vaccinia mCherry	Vaccinia Venus
CCCCC(CC)C(=O)NCCCN1CCN(CCCNC(=O)C(CC)CCCC)CC1 (configuration not stated)	·	-28%
O=C1CN(C(=O)COC(=O)c2ccccc2O)c2ccccc2N1	-3%	-8%
Cc1cc(C(=O)OCC(=O)Nc2ccccc2Cl)c(C)o1	-13%	-4%
CC(C)(C)c1ccc(CSC2=Nc3ccccc3C3=NC(CC(=O)NCc4cccs4)C(=O)N23)cc1 (configuration not stated)	-22%	-10%
C=CCc1cccc2cc(C(=O)Nc3ccc(F)cc3)c(=O)oc12	10%	-3%&-13%
CCOC(=O)c1c(C)[nH]c(C2=NNC(=NC(C)COC)SC2)c1C (configuration not stated)	i	-7%
CCC(C)(C)n1nnnc1CN(Cc1ccc(Cl)cc1)Cc1ccco1	-26%	-4%
COc1cccc(CN2CCN(Cc3cc4ccccc4o3)CC2CCO)c1 (configuration not stated)	?	-14%
COC(=O)CN(C)C(=O)c1ccc(OC)c(OC2CCN(C(C)C)CC2)c1	-9%	7%
Cn1cnc(S(=O)(=O)N2CCC(C(=O)Nc3ccc(OC(F)(F)F)cc3)CC2)c1	i	-20%

Sorted by formula weight (highest first): 3 of the compounds above.
SMILES	Vaccinia mCherry	Vaccinia Venus
CC(C)(C)c1ccc(CSC2=Nc3ccccc3C3=NC(CC(=O)NCc4cccs4)C(=O)N23)cc1 (configuration not stated)	-22%	-10%
CCOC(=O)c1c(C)[nH]c(C2=NNC(=NC(C)COC)SC2)c1C (configuration not stated)	i	-7%
C=CCc1cccc2cc(C(=O)Nc3ccc(F)cc3)c(=O)oc12	10%	-3%&-13%
